Screening results: PubChem BioAssay, National Center for Advancing Translational Sciences (NCATS)
TRPV1 PAM – HTS Assay for Compounds that Act as Potentiators of the Vanilloid Receptor 1. TRPV1-expressing cells, Fluo-8 calcium influx, capsaicin EC20 potentiation; host cell line not named in the record; control for the full effect not named in the record. 0.02% of 320,000 active. Transient receptor potential cation channel subfamily V member 1 (Homo sapiens), Q8NER1. potentiation, % at 8.33 µM; active means potentiation above 80%; inconclusive means 30% to 80%; inactive means below 30%; also: 0% is about no effect
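Cells expressing TRPV1 were dye-loaded with Fluo-8 and read kinetically: 10 s baseline, 3 min after compound (agonist portion), then 2 min after EC20 capsaicin (allosteric enhancer portion). Calcium-bound dye fluorescence at 480/520 nm.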
TRPML1 inh – qHTS for Inhibitors of the Human Mucolipin Transient Receptor Potential 1 (TRPML1) | TRPML1-inducible cells, Ca2+ dye fluorescence, FDSS; stronger effect = lower value; inhibition of EC80 agonist-evoked calcium signal | activity change, negative = inhibition, % (test concentration not listed) | 0.02% of 390,000 active | AID 624415, 2012; in the data active means activity change below about -50%; inconclusive means about -30% to -50%; inactive means above about -30%;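 also: stimulus is agonist 54-4 at its EC80 concentration; % is scaled to controls: 0 for no effect and ±100 for the full control effect; compound concentration not given in the record; the text of the record puts the active cut at -80%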
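Tet-induced TRPML1-DL cells loaded with Ca8 no-wash calcium dye were read kinetically on FDSS. Compound addition was followed by EC80 agonist 54-4 (4 uM final); inhibition was read over 110 s.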
CtBP-E1A inh – qHTS Assay for Inhibitors of the CtBP/E1A Interaction | activity change, % (test concentration not listed) | AID 651724, 2012 | CtBP / adenovirus E1A interaction (AlphaScreen) | AlphaScreen GST-E1A/His-CtBP binding, 1536-well; stronger effect = lower value; control for the full effect not named in the record | 0.49% of 340,000 active; in the data active means activity change below about -65%; inconclusive means about -30% to -65%; inactive means above about -30%; also: % is scaled to controls: 0 for no effect and ±100 for the full control effect; compound concentration not given in the record
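In 5 uL wells, 23 nL compound meets equimolar GST-E1A and His-CtBP (5X stock 125 nM each) for 2 h, 37 °C. Beads (5X, 50 ug/mL) then 1 h, 37 °C, dark.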
TRPML1 ag – qHTS for Agonists of the Human Mucolipin Transient Receptor Potential 1 (TRPML1) | AID 624414, 2012 | TRPML1-expressing cells, Ca2+ dye fluorescence, FDSS; host cell line not named in the record; reference of the full effect not given here | 0.12% of 410,000 active | Mucolipin-1 (Homo sapiens), Q9GZU1 | activation, % (concentration not given with the values); in the data active = activation above about 50%; inconclusive = about 30% to 50%; inactive = below about 30%; also: 0% is about no effect; the text of the record puts the active cut at 80%
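Cells: TRPML1-DL, 1X Tet inducer, ~16 h at 37 degrees C/5% CO2. Dye: ABD Ca8 no-wash + quencher, 45-90 min RT. Read: 10 s baseline, compound add, 110 s agonist phase; 54-4 EC80 (4uM final), 110 s antagonist phase.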
Six1-Eya2 inh – qHTS Assay for Inhibitors of the Six1/Eya2 Interaction. AID 651725, 2012. AlphaScreen GST-Six1/His-Eya2 binding, biochemical; stronger effect = lower value; control for the full effect not named in the record. activity change, % (no concentration beside the values). Homeobox protein SIX1 (Homo sapiens) + Protein phosphatase EYA2 (Homo sapiens), …. 0.56% of 360,000 active; in the data active = activity change below about -65%; inconclusive = about -30% to -65%; inactive = above about -30%; also: % is scaled to controls: 0 for no effect and ±100 for the full control effect; compound concentration not given in the record
Target sequence (O00167 whole entry, looked up): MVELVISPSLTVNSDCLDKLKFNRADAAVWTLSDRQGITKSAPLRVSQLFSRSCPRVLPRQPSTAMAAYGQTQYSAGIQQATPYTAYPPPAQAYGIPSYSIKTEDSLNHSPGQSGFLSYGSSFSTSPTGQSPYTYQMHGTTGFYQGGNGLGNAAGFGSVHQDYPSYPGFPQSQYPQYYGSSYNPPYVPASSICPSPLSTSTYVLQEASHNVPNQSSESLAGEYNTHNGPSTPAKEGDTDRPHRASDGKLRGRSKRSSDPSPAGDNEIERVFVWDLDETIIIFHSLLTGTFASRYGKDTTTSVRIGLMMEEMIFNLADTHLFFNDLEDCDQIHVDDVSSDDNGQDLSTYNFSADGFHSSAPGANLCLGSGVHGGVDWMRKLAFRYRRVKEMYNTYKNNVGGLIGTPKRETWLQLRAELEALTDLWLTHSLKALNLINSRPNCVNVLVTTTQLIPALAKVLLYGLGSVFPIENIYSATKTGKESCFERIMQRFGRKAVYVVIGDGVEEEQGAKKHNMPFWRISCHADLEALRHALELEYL
Target sequence (Q15475 whole entry, looked up): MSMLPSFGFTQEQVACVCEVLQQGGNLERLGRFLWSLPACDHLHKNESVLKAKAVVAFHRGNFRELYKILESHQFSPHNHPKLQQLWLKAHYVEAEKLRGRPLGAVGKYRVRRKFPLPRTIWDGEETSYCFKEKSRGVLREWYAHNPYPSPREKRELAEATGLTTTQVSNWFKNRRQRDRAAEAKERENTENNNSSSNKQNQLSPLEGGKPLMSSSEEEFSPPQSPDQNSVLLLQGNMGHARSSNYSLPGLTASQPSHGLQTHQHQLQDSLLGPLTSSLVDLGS
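GST-Six1 + His-Eya2 (5X stock: 250/500 nM); Tris pH 8.0, 300 mM NaCl, 0.05% BSA, 0.02% Tween 20; GSH donor/Ni acceptor beads; 1 h 37 °C dark; AlphaScreen readout.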
D2 PAM – Beta-Arrestin HTS for Positive Allosteric Modulators of the Human D2 Dopamine Receptor: Potentiators. DiscoveRx D2 beta-arrestin cells, luminescence, 90 min; 100% = 57 uM dopamine signal. potentiation, % (concentration not given with the values). 0.23% of 360,000 active; active = potentiation of 50% or more; inconclusive = 30% to 50%; inactive = 30% or less;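 also: compound concentration not given in the record; tested on top of an EC20 dose of dopamine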
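PathHunter D2 cells, attached overnight at 37 deg C, received compound in DMSO plus dopamine at EC20 (50 nM final) for 90 min at 37 deg C. Beta-arrestin recruitment was read as luminescence after 1 h with detection reagent at ambient temperature.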
Starred values were filed as active, the others as inactive; ? = inconclusive; · = no result given; & = joins results of further samples.

Order of values – TRPV1 PAM, TRPML1 inh, CtBP-E1A inh, TRPML1 ag, Six1-Eya2 inh, D2 PAM
CC(C)(C)c1nn2cnnc2n(/N=C/c2ccc(O)cc2)c1=O
    -4, -16, 2, 0.3, -8, 3
O=C(O)c1ccc(C(S(=O)(=O)c2ccccc2)S(=O)(=O)c2ccccc2)cc1
    ·, -9, 4, -0.5, 1, -6
COc1cccc2cc(-c3nnc(SCC(=O)NCCc4ccccc4)n3C)oc12
    -3, -3, 8, -0.5, -2, -10
CC(C)Oc1cccc(C(=O)C2CCCN(C(=O)c3cncs3)C2)c1 (stereo not given)
    -3, 5, -4, 1.6, 4, -10
COc1ccc(C2CCN(CC(=O)N(C)C)CC2O)cc1 (stereo not given)
    3, -13, 0, 1.3, 25, -2
O=C(COC(=O)c1ccc2ncsc2c1)Nc1ccccc1Br
    -2, 2, ·, -1.9, 33, -7
CCOc1cc(C2c3c(-c4ccccc4)n[nH]c3C(=O)N2c2ccc(C(=O)O)cc2)ccc1O (stereo not given)
    14, -11, -2, -0.1, 0, -1
Cc1nc(NC(=O)COC(=O)C2CC2C)c(Cl)cc1Cl (stereo not given)
    ·, -7, 11, 0.7, 5, -2
CCOC(=O)c1c(C)oc2c1c(C(c1cccnc1)N1CCOCC1)c(O)c1ccccc12 (stereo not given)
    -20, -5, -3, -0.5, -2, 19
NC(=O)c1c(/N=C/c2cccs2)sc2c1CCCC2
    -5, 34, ·, -0.6, 4, -23

Reformatted tab-delimited: part of the list above
SMILES	TRPV1 PAM	TRPML1 inh	CtBP-E1A inh	TRPML1 ag	Six1-Eya2 inh	D2 PAM
COc1ccc(C2CCN(CC(=O)N(C)C)CC2O)cc1 (stereo not given)	3	-13	0	1.3	25	-2
O=C(COC(=O)c1ccc2ncsc2c1)Nc1ccccc1Br	-2	2	·	-1.9	33	-7

(list continues)
Order of values – TRPV1 PAM, TRPML1 inh, CtBP-E1A inh, TRPML1 ag, Six1-Eya2 inh, D2 PAM
O=C(CN1CCOCC1)NCc1ccc(F)cc1
    -1, -3, ·, 0.9, 0, -2
Cc1ccc(S(=O)(=O)Cn2nnnc2C(CC(C)C)N2CCN(C)CC2)cc1 (stereo not given)
    9, -7, 2, 1.1, 0, -7
Cc1c(NC(=O)c2c(NC(=O)CNC3CC3)sc3c2CCCC3)c(=O)n(-c2ccccc2)n1C
    6, 6, -4, -0.5, -8, -15
CC(C)[C@@H](C(=O)OCC(=O)c1ccc2c(c1)NC(=O)CO2)N1C(=O)c2ccccc2C1=O
    ·, 4, 2, -1.1, 3, -1
CC(=O)OC(C(=O)Nc1nncs1)c1ccccc1 (stereo not given)
    ·, ·, 1, -0.6, -3, 0
COc1cccc(N(CC(=O)NC2CCCCC2)C(=O)CCC(=O)Nc2nccs2)c1
    14, 5, 0, -1.6, 1, -14
CC1CCN(Cc2cc(=O)oc3ccc4ccccc4c23)CC1
    -12, -1, 28, 0.0, 13, -9
CN1C[C@@H]2[C@@H]3C(=O)N(C)C(=O)[C@@H]3[C@](Cc3ccccc3)(C1=O)N2C(=O)c1ccc(Cl)cc1
    ·, 13, 4, -0.5, 0, -6
CCOc1ccccc1NC(=O)CCS(=O)(=O)c1ccc(OC)cc1
    -5, 0&-22, ·, 1.5&1.0, -3, -3
Cc1ccc(/C=N/Nc2ccc(F)cc2)s1
    1, 16, -12, -0.7, 2, -4

The results go on.
Order of values – TRPV1 PAM, TRPML1 inh, CtBP-E1A inh, TRPML1 ag, Six1-Eya2 inh, D2 PAM
COc1cc(Cl)cc(CN2CCC(CCC(=O)NC3CC3)CC2)c1OC
    -7, 19, -4, 0.5, 6, -4
CN(Cc1cnccn1)C(=O)CC1C(=O)NCCN1CC(c1ccccc1)c1ccccc1 (stereo not given)
    9, -6, 4, -0.1, -4, -2
COc1cccc(NC(=O)Cn2c(=O)oc3ccccc32)c1
    -4, -15, 5, 0.2, -3, 0
COc1ccccc1NS(=O)(=O)c1cc(C(=O)NCC(c2ccco2)N2CCCCC2)ccc1C (stereo not given)
    10, 3, -14, 0.8, 0, -39
CCOC(=O)c1c(NC(=O)CSc2nnnn2CC)sc(C)c1C
    -3, -4, -2, -0.6, -4, -17
COc1ccc(Cc2noc(CN(C)CCN3CCc4ccccc4C3)n2)cc1OC
    -14, 3, -7, 0.2, -5, -22
CCN(c1ccc(NC(=O)COC(=O)c2ccc(S(=O)(=O)N3CCCC3)cc2)cc1)C(C)C
    -3, 4, -17, 0.1, -22, -16
O=C(Nc1cc(S(=O)(=O)N2CCOCC2)ccc1N1CCOCC1)c1c(F)cccc1Cl
    ·, -14, -1, 1.2, 16, -4
FC(F)(F)c1ccc(Cl)c(N/N=C/c2ccc(N3CCOCC3)s2)c1
    6, 3, -7, 0.9, -3, 72*
O=C(c1n[nH]c(=O)c2ccccc12)N1CCN(c2ccccc2)CC1
    8, 15, -1, 3.1, -7, 2

The list goes on:
Order of values – TRPV1 PAM, TRPML1 inh, CtBP-E1A inh, TRPML1 ag, Six1-Eya2 inh, D2 PAM
CC(=O)Nc1ccc(NC(=O)C2(C)Cc3c(-c4ccc5c(c4)OCO5)ccnc3O2)cc1 (stereo not given)
    ·, ·, -7, -0.6, 0, -11
O=C(c1ccccc1Cc1ccccc1)N1CCN(S(=O)(=O)c2ccccc2)CC1
    13, 16, 0, -0.1, -1, -12
CCCC(=O)NNC(=O)c1ccoc1C
    3, 38, -15, -0.1, 1, -7
COc1ccc(S(=O)(=O)N2CCN(c3nc(-c4cccnc4)nc4ccccc34)CC2)cc1
    11, -6, -9, 0.4, -6, -1
CCOC(=O)C1CCN(C(=O)CN2C(=O)c3cccnc3Oc3ccc(C)cc32)CC1
    -7, 12, 3, -0.2, 1, -6
Cc1c(NS(=O)(=O)c2cccc(C(=O)NCc3ccccc3)c2)c(=O)n(-c2ccccc2)n1C
    -1, 15, -5, 0.2, 12, -1
Cc1ccc2c(c1)C1CN(C)CCC1N2S(=O)(=O)c1ccccc1F (stereo not given)
    1, 12, -9, 1.6, -1, -3
Cn1c(N)c(C(=O)COC(=O)c2cccnc2Cl)c(=O)n(C)c1=O
    26, 8, -13, -0.1, -8, 2
COc1ccccc1NC(=O)C1CCOC1=O (stereo not given)
    ·, 2, -5, 2.9, -3, -3
CCc1nc2oc3ccccc3c(=O)c2c(=O)n1-c1ccccc1
    -21, 13, -17, 0.6, -14, 13

(further entries)
Order of values – TRPV1 PAM, TRPML1 inh, CtBP-E1A inh, TRPML1 ag, Six1-Eya2 inh, D2 PAM
O=C(NCCCc1ccccc1)C1CC(=O)N(c2ccc3c(c2)OCCO3)C1 (stereo not given)
    7, -1, 1, -0.9, -2, -3
COCCNc1nnc(SCC(=O)NC(=O)c2ccc(Cl)cc2)s1
    -1, 11, 0, 2.7, 4, -7
O=C(CCCC(=O)N(CC(=O)NC1CCCC1)c1ccc(F)c(Cl)c1)Nc1ccccn1
    ?, 1, 9, 0.3, 1, -2
c1ccc(-n2ncc3c(NCC4CCCO4)ncnc32)cc1 (stereo not given)
    -3, -2, -4, -0.4, -2, -3
O=C1N(c2ccc(Cl)cc2)C(c2ccc(Cl)cc2)N2CCCN12 (stereo not given)
    -5, -10, 1, 0.8, -7, -14
CC12CN(C(=O)c3ccccc3Br)CC(C)(CN(C(=O)c3ccccc3Br)C1)C2=O
    1, 9, 3, -0.7, 12, -6
COc1ccc(N2C(=O)CC(Sc3nc4ccccc4s3)C2=O)cc1 (stereo not given)
    5, 3, 6, -0.1, 1, -2
Cc1ccc(Cn2cccc(NC(=O)CCC3CCCC3)c2=O)cc1
    -10, 51, 13, 5.1, 20, -5
CCN(C(=O)COC(=O)c1ccc(C=O)cc1)c1c(N)n(Cc2ccccc2)c(=O)[nH]c1=O
    -4, 3, 0, 0.6, 3, -1
CCn1c(CC(=O)Nc2ccccc2C)nnc1SCC(=O)NC1=NCCS1
    1, -10, -6, -1.2, 0, -2

Further entries follow:
Order of values – TRPV1 PAM, TRPML1 inh, CtBP-E1A inh, TRPML1 ag, Six1-Eya2 inh, D2 PAM
Cc1ccnc(N2CCC(C(=O)NNC(=O)c3ccncc3)CC2)n1
    1, 9, ·, -0.2, 6, -13
O=c1[nH]c(CSc2nnc(NCCCN3CCOCC3)s2)nc2cc(Cl)ccc12
    -8, -15, -6, -0.6, 3, -10
COc1ccc(C)cc1NC(=O)C12CCC(C)(C(=O)O1)C2(C)C (stereo not given)
    -19, -8, 0, -0.2, 2, -2
COCCCN(C(=O)c1ccc2ccccc2n1)c1c(N)n(Cc2ccccc2)c(=O)[nH]c1=O
    11, 3, ·, -0.2, 6, -1
O=S1(=O)CCC(=Nc2ccc(Cl)cc2)c2ccsc21
    -11, -11, ·, -0.1, 28, -12
CCCCNC(=O)Nc1c(C(=O)OCC)[nH]c2ccccc12
    22, -3, 7, 0.0, 7, -23
Cc1ccc(NC(=O)COC(=O)C2COc3ccccc3O2)cc1S(=O)(=O)N1CCOCC1 (stereo not given)
    -5, 30, -1, 2.6, 3, -6
COc1ccc(-c2[nH]ncc2/C=C(/C#N)C(=O)NC2CCCCCC2)cc1
    -14, -5, -2, 0.6, -4, 8
CCOC(=O)c1ccc(NC(=O)COc2cc3oc(=O)c(CC(C)O)c(C)c3cc2Cl)cc1 (stereo not given)
    2, -7, 2, 0.1, 4, -5
CC(C)CC(C(=O)OCC(=O)Nc1ncc(Cl)cc1Cl)N1C(=O)c2ccccc2C1=O (stereo not given)
    19, 5, 0, 0.2, -6, -4
O=c1c2ccc(Cl)cc2nc(-c2ccc([N+](=O)[O-])cc2)n1O
    -13, 3, 3, -0.5, 1, -10
NC(=O)CSc1nc(N)c2c3c(sc2n1)CCCCC3
    2, 6, -1, 0.8, -4, -3
CN1CCC(N(C)C(=O)CCc2nc3ccccc3c(=O)[nH]2)CC1
    -7, -2, 7, 3.0, 4, -3

Reformatted as labelled records: four of the compounds above
> O=C1N(c2ccc(Cl)cc2)C(c2ccc(Cl)cc2)N2CCCN12 (stereo not given)
  TRPV1 PAM: -5; TRPML1 inh: -10; CtBP-E1A inh: 1; TRPML1 ag: 0.8; Six1-Eya2 inh: -7; D2 PAM: -14

> CCc1nc2oc3ccccc3c(=O)c2c(=O)n1-c1ccccc1
  TRPV1 PAM: -21; TRPML1 inh: 13; CtBP-E1A inh: -17; TRPML1 ag: 0.6; Six1-Eya2 inh: -14; D2 PAM: 13

> CN1C[C@@H]2[C@@H]3C(=O)N(C)C(=O)[C@@H]3[C@](Cc3ccccc3)(C1=O)N2C(=O)c1ccc(Cl)cc1
  TRPV1 PAM: ·; TRPML1 inh: 13; CtBP-E1A inh: 4; TRPML1 ag: -0.5; Six1-Eya2 inh: 0; D2 PAM: -6

> CC(=O)Nc1ccc(NC(=O)C2(C)Cc3c(-c4ccc5c(c4)OCO5)ccnc3O2)cc1 (stereo not given)
  TRPV1 PAM: ·; TRPML1 inh: ·; CtBP-E1A inh: -7; TRPML1 ag: -0.6; Six1-Eya2 inh: 0; D2 PAM: -11
